KCNQ2 block = KCNQ2 channel blockers in CHO-K1 cells – cell-based, FluxOR thallium flux, B-score, primary screen (AID 2156); B-score at 10 µM; 310,000 tested, 1.1% active; 20 min; hits give low values; only compounds with negative scores are shown here; some inactives read as strong as hits;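 active = fluorescence ratio B-score at most minus 3 library SDs, with starting brightness B-score within 2 library SDs, cut at about -5.5 in these data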
Target sequence (O88943 whole entry, looked up): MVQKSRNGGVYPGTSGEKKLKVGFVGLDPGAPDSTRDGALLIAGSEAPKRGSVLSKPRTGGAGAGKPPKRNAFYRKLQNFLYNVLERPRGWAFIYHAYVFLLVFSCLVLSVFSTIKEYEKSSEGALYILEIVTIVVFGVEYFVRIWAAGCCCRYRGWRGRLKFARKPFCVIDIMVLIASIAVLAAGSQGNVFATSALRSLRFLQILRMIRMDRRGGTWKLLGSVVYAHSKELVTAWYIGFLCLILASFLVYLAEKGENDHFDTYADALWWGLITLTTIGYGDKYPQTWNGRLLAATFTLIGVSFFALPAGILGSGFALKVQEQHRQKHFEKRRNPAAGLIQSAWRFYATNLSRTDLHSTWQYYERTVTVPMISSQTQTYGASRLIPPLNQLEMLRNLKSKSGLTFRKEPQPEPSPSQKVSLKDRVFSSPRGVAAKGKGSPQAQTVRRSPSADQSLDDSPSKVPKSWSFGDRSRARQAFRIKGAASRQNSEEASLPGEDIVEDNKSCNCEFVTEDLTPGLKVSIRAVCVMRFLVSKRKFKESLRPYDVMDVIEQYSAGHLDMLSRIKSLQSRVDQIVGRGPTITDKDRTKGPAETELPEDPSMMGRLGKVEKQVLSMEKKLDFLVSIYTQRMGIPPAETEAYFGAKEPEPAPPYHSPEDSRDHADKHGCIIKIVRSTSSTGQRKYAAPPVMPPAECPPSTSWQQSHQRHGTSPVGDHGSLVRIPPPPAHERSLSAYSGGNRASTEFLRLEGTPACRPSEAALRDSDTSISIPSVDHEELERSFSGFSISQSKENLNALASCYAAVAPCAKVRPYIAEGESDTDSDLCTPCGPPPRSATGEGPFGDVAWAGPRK
KCNQ2 block baseline = further read-out of KCNQ2 block, marked with its call; B-score; measured here: initial fluorescence intensity artifact check;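 brightness before thallium and not channel activity; 0 = typical well and far values either way flag optical interference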
An asterisk follows results filed as active; i = inactive. Only part of the results is shown; rates above refer to the full screens.

SMILES	KCNQ2 block	KCNQ2 block baseline
Cc1ccc(-n2cc(CN3CCC(CO)(Cc4cccc(C(F)(F)F)c4)CC3)cn2)cc1	i	2.4
C=CCNC(=O)COc1coc(CN2CCN(C(=O)c3ccco3)CC2)cc1=O	i	0.78
O=C(CCc1ccccc1)Nc1ccnn1C1CCN(Cc2ccc(OCCO)cc2)CC1	i	0.05
CC1(C)CC(NC(=O)c2cc(S(=O)(=O)N3CCCCC3)ccc2Cl)CC(C)(C)N1	i	0.06
Cc1ccc(OCCCn2ccnc2)cc1C	i	-1.7
CCOc1cc(C=C2C(=O)c3ccccc3C2=O)ccc1OCC(=O)Nc1ccc(C)cc1	i	13
Cc1ccnc2nc(C(=O)OCC(=O)c3c[nH]c4ccccc34)nn12	i	-0.81
COc1ccc(N2CCN(CC(O)COc3cc(C)cc(C)c3)CC2)cc1 (stereo unspecified)	i	0.59
CC1CCCC(C)N1C(=O)CSc1nnc(-c2c[nH]c3ccccc23)o1 (stereo unspecified)	i	0.59
Cc1ccc(-c2cc(C(F)(F)F)n3ncc(C(=O)N4CCCCC4c4cccnc4)c3n2)cc1 (stereo unspecified)	i	1
COC(=O)c1c(NC(=O)CN2C(=O)NC3(CCC(C(C)(C)C)CC3)C2=O)sc2c1CCCCC2 (stereo unspecified)	i	-0.21
CCOc1ccc(N/C=C/C(=O)c2ccc3ccccc3c2)c([N+](=O)[O-])c1	i	-0.37
O=C(N=C1SC2CS(=O)(=O)CC2N1c1ccc(OC(F)(F)F)cc1)C1CC1 (stereo unspecified)	i	-1.9
Cc1cccc(C2Nc3ccccc3C(=O)N2CCc2ccccc2)n1 (stereo unspecified)	i	0.63
CC1CCN(Cc2c(C(=O)N3CCc4ccccc4C3)nc3ccc(Cl)cn23)CC1	-5.8*	-0.11*
COc1ccc(S(=O)(=O)Nc2ccccc2C(=O)N2CCOCC2)cc1C	i	0.68
CC(C)c1nc2oc3c(N(C)CCO)ncnc3c2c2c1CCC2	i	0.15
Cc1ccc(N(CC(=O)NCC(O)c2ccccc2)S(=O)(=O)c2ccc(C)cc2)cc1 (stereo unspecified)	i	-0.61
CC1CCC(NC(=O)CCS(=O)(=O)c2ccc3c(c2)CCN3C(=O)C2CC2)CC1 (stereo unspecified)	i	0.41
CCOC(=O)N1CCC(NC(=O)CS(=O)(=O)Cc2nc(-c3ccc(OC)cc3)oc2C)CC1	i	-0.75
CC(=O)c1cc2c(cc1NC(=O)CN1CCCCC1C)OCO2 (stereo unspecified)	i	1.2
Cc1c(NC(=O)c2ccc3ncccc3c2)c(=O)n(-c2ccccc2)n1C	i	2.5
Cc1cc(-c2n[nH]c(=S)n2-c2ccccc2)nn1C	i	0.62
Cc1ccc(Nc2ccc([N+](=O)[O-])nc2[N+](=O)[O-])cc1	i	0.22
Cc1ccc2nc(SC(C(=O)c3ccccc3)c3ccccc3)nc(C)c2c1 (stereo unspecified)	i	-0.29
O=C(NCCCn1ccnc1)c1ccc(F)cc1	i	1.4
O=C1C(Cl)=C(N2CCCCC2)C(=O)C(Cl)=C1c1cnc(N2CCCCC2)s1	i	-0.01
O=C(CSCc1ccc(Cl)cc1)Nc1cc([N+](=O)[O-])ccc1O	i	-2
CN1C(=O)CSc2ccc(NC(=O)N3CCOCC3)cc21	i	3.9
COC(=O)c1c(C)noc1-c1cc(C)on1	i	-1.1

Entries above that contain a Cl atom, in the order listed:
SMILES	KCNQ2 block	KCNQ2 block baseline
CC1(C)CC(NC(=O)c2cc(S(=O)(=O)N3CCCCC3)ccc2Cl)CC(C)(C)N1	i	0.06
CC1CCN(Cc2c(C(=O)N3CCc4ccccc4C3)nc3ccc(Cl)cn23)CC1	-5.8*	-0.11*
O=C1C(Cl)=C(N2CCCCC2)C(=O)C(Cl)=C1c1cnc(N2CCCCC2)s1	i	-0.01
O=C(CSCc1ccc(Cl)cc1)Nc1cc([N+](=O)[O-])ccc1O	i	-2

Going on with the list:
SMILES	KCNQ2 block	KCNQ2 block baseline
COc1cc(S(=O)(=O)N2CCN=C2c2ccccc2)ccc1Cl	i	3.3
CSc1nsc(SCC(=O)N2CCCc3ccccc32)n1	i	-1.1
CC1Cn2c(nnc2-c2cccc(Cl)c2)S1 (stereo unspecified)	i	1.4
Cc1cccc(NC(=O)CCC2CCN(C(=O)C3CC=CCC3)CC2)c1 (stereo unspecified)	i	0.05
CCCCCCC1CC(CSc2ncn[nH]2)OC1=O (stereo unspecified)	i	0.04
COc1ccc(-c2ccc([C@H]3[C@@H]4C=CCC[C@@]4(C)C(=O)N3Cc3ccccc3)c(F)c2)cc1OC	i	-2.3
CCCC12CN(C(=O)c3ccco3)CC(CCC)(CN(C(=O)c3ccco3)C1)C2=O	i	-0.03
O=C(CN1C(=O)C2C3C=CC(C3)C2C1=O)NCC1COc2ccccc2O1 (stereo unspecified)	i	0.06
CCN(CC)C(=O)c1sc2nc(-c3cccs3)cc(-c3ccc(Cl)cc3)c2c1N	-6.9*	0.25*
S=C(c1ccc(-c2cc(Cl)ccc2Cl)o1)N1CCCCC1	i	-0.82
COCC(=O)OCc1cc2cccc(C)c2[nH]c1=O	i	1
CS(=O)(=O)N(CCCC(=O)N1CCCCCC1)c1cccc(Cl)c1	i	0.66
O=C(N/N=C/c1ccc(F)cc1)c1sccc1OCc1ccc(F)cc1	i	0.97
O=C(Nc1ccnn1C1CCN(Cc2ccccc2)CC1)C1CCOC1 (stereo unspecified)	i	-0.07
Cc1ccc(S(=O)(=O)N[C@@H](CC(C)C)C(=O)N2CCC(C(=O)N[C@H](C(=O)O)C(C)C)CC2)cc1	i	0.74
CCOC(=O)c1cc2n(c1N)-c1ccccc1C2=O	i	0.65
CC(=O)O[C@H]1CC(C)(C)C(=C=C/C(C)=C/C=C/C(C)=C/C=C/C=C(C)/C=C/C=C(\C)C(=O)C[C@@]23O[C@]2(C)C[C@@H](O)CC3(C)C)[C@](C)(O)C1	i	0.07
CCCNC(=O)C1(CC2CC(c3ccccc3)=NO2)CCN(C(=O)OC(C)(C)C)CC1 (stereo unspecified)	i	0.02
CCOC(=O)C1=C(N)OC2=C(C(=O)CC(C)(C)C2)C1c1ccc(CC)s1 (stereo unspecified)	i	-0.82
CCOc1ccccc1C(=O)Nc1cccc2cccnc12	i	0.17
Cc1ccc(CN(C)C(=O)CC2C(=O)NCCN2CC2CCCCC2)cc1 (stereo unspecified)	i	2
Cc1cccc(OCC(=O)NNC(=O)Cn2c(=O)cnc3ccccc32)c1	i	1.2
O=C(O)CC(C(=O)Nc1ccc(Cl)cc1)N1CCCCCC1 (stereo unspecified)	i	2.6
C=CCn1c(NCc2cc(C)ccc2O)nc2ccccc21	-7.1*	-0.99*
CSc1ccc(C2Nc3ccccc3-c3cc(C)nn32)cc1 (stereo unspecified)	i	-1.9
CCOC(=O)Cn1c(=O)oc2cc(S(=O)(=O)N3CCN(C(=O)c4ccco4)CC3)ccc21	i	0.01
CCOC(=O)C(Cc1ccccc1)C(=O)Nc1ccccc1C (stereo unspecified)	i	-0.37
O=C(NCCc1ccccc1)C1CCN(S(=O)(=O)c2cccc3nsnc23)CC1	i	-0.23
CCC(Oc1ccccc1)C(=O)N1CC(C)CC(C)C1 (stereo unspecified)	i	-0.09
CCOC(=O)C1(Cc2cccc(Cl)c2)CCCN(C(=O)c2cccnc2)C1 (stereo unspecified)	i	0.87

Record cards (already shown).
Listed for CCOC(=O)Cn1c(=O)oc2cc(S(=O)(=O)N3CCN(C(=O)c4ccco4)CC3)ccc21 → KCNQ2 block = i; KCNQ2 block baseline = 0.01
Listed for Cc1cccc(OCC(=O)NNC(=O)Cn2c(=O)cnc3ccccc32)c1 → KCNQ2 block = i; KCNQ2 block baseline = 1.2
Listed for C=CCn1c(NCc2cc(C)ccc2O)nc2ccccc21 → KCNQ2 block = -7.1*; KCNQ2 block baseline = -0.99*

The results go on:
SMILES	KCNQ2 block	KCNQ2 block baseline
CCC(=O)Nc1ccc(S(=O)(=O)Nc2ccc(Cl)nn2)cc1	i	-0.22
COc1ccc(C(=O)Cn2c(C)nc([N+](=O)[O-])c2Br)cc1	i	-0.48
O=C1c2ccccc2C(=O)N1Cc1ccccc1F	i	-0.38
O=C(O)c1nc(N2CCCCC2)ncc1Cl	i	0.51
COC(C(=O)Nc1ccnn1C1CCN(Cc2ccc(CO)o2)CC1)c1ccccc1 (stereo unspecified)	i	3.2
COCCN(C(=O)COC(=O)c1cccs1)c1c(N)n(Cc2ccccc2)c(=O)[nH]c1=O	i	-1.4
O=C(NCc1ccccc1)c1ccc(CS(=O)(=O)c2ccc(Br)cc2)o1	i	-1.3
O=[N+]([O-])c1ccccc1S(=O)(=O)n1nnc2ccccc21	i	-0.86
O=C(COc1ccc(S(=O)(=O)NC2CCCCC2)cc1)NCCC1=CCCCC1	i	-0.74
C#CCOC(=O)c1ccc(-n2cncn2)nc1	i	-0.59
Cc1cccc(N(CC(=O)N2CCCC2)S(=O)(=O)c2ccccc2)c1	i	2
Cc1c(NC(=S)N/N=C/c2cc([N+](=O)[O-])ccc2O)c(=O)n(-c2ccccc2)n1C	i	-1.1
C=CCN(CC=C)S(=O)(=O)c1ccc(C(=O)Nc2nnc(COC)o2)cc1	i	-1.4
Cc1sc(NC(=O)C2CCCCC2C(=O)O)c(C(N)=O)c1-c1ccc(C(C)(C)C)cc1 (stereo unspecified)	i	-0.84
Cc1nc(C)c(-c2ccc(SCC(=O)Nc3ccccc3)nn2)s1	i	-0.83
O=C(NCc1cccnc1)c1sc2ccccc2c1Cl	i	-0.15
COc1ccccc1OCc1ccc(C(=O)c2ccccc2)cc1	i	-1.7
COc1cc(OC)cc(C(=O)Nc2cccc(N3CCCC3)c2)c1	i	-0.19
Cc1ccc(NC(=S)NC(C)CCc2ccccc2)cc1C (stereo unspecified)	i	-0.47
Clc1cccc(-c2cc3nc4c(c(N5CCOCC5)n3n2)CCCC4)c1	i	-2.8
CCCn1c(C)cc(C)c(C#N)c1=O	i	0.59
CCOC(=O)C1=NN(C(=O)COc2ccccc2)C(O)(c2ccc(Cl)cc2)C1 (stereo unspecified)	i	1.6
Cc1ccc(-n2nc3c(c2NC(=O)CC(C)C)CS(=O)(=O)C3)c(C)c1	i	-1.1
COc1ccc(C(=O)N2CCN(Cc3ccccc3[N+](=O)[O-])CC2)cc1	i	0.03
CNC(=O)CSc1nnc(-c2ccco2)n1-c1cccc(C)c1	i	1.1
COC(C(=O)Nc1ccnn1C1CCN(C(=O)c2ccc(C)cc2)CC1)c1ccccc1 (stereo unspecified)	i	-0.75
CN(Cc1cnn(C)c1)C(=O)c1ccc(OC2CCN(CCc3ccccc3)CC2)cc1	i	0.81
CCc1ccc(CN(C(=O)COc2c(C)cccc2C)C2CCS(=O)(=O)C2)cc1 (stereo unspecified)	i	0.1
O=C(COC(=O)C1CCN(c2ccc(C(F)(F)F)cn2)CC1)c1cccc(Br)c1	i	0.88
Cc1cc(C)n2c(SCc3ccc(Br)cc3)nnc2n1	i	3.1

As entered above.
KCNQ2 block baseline, `Cc1cc(C)n2c(SCc3ccc(Br)cc3)nnc2n1` stands at 3.1
KCNQ2 block baseline, `CCCn1c(C)cc(C)c(C#N)c1=O` stands at 0.59

Five compounds from above, ordered by length of the SMILES, highest first.
SMILES	KCNQ2 block	KCNQ2 block baseline
O=C(COC(=O)C1CCN(c2ccc(C(F)(F)F)cn2)CC1)c1cccc(Br)c1	i	0.88
CCc1ccc(CN(C(=O)COc2c(C)cccc2C)C2CCS(=O)(=O)C2)cc1 (stereo unspecified)	i	0.1
COc1ccc(C(=O)N2CCN(Cc3ccccc3[N+](=O)[O-])CC2)cc1	i	0.03
Cc1cc(C)n2c(SCc3ccc(Br)cc3)nnc2n1	i	3.1
CCCn1c(C)cc(C)c(C#N)c1=O	i	0.59

Further results follow.
SMILES	KCNQ2 block	KCNQ2 block baseline
O=S(=O)(NCC1CCN(c2ccc(S(=O)(=O)N3CCOCC3)cc2)CC1)c1ccc(F)cc1	i	1.6
CC1=NOC(=O)/C1=C/c1ccc(O)c(Br)c1	i	-1
Cc1nnc(SCC(=O)Nc2ccc(F)cc2F)n(N)c1=O	i	-0.48
CCCc1c(C(=O)N/N=C/c2ccncc2)nnn1-c1nonc1N	i	-0.83
O=C(Cc1ccc([N+](=O)[O-])cc1)N1N=C2CCCCC2C1(O)C(F)(F)F (stereo unspecified)	i	-0.73
O=C(COc1ccc2c3c(c(=O)oc2c1)CCCC3)NCc1cccnc1	i	-0.26
CC12CCC(C(=O)Nc3ccccc3Br)(C/C1=N\O)C2(C)C (stereo unspecified)	i	0.17
Cn1c(=O)c2c(nc(SCC(=O)c3cccs3)n2Cc2ccc(F)cc2)n(C)c1=O	i	0.67
CCOc1ccc(NC(=O)CN(C)C(=O)c2ccc(=O)[nH]c2)cc1OCC	i	-1.6
COc1cc(-c2nnc(NC(=O)CCS(=O)(=O)c3ccc(F)cc3)o2)cc(OC)c1OC	i	0.44
CC(C)=C1C(=O)NN(c2ccc(F)c(Cl)c2)C1=O	i	0.62
CCn1c(=O)c(C(=O)NCc2ccccc2OC)c(O)c2ccccc21	i	0.01
Nc1ccc(C(=O)OCCCc2nc3cc4ccccc4cc3[nH]2)cc1	i	-0.06
COc1ccc(S(=O)(=O)N(C)c2ccc(C(=O)N3CCOCC3)cc2)cc1OC	i	1.1
COc1ccccc1CNC(=O)CCC(=O)n1ncc2cc(C)ccc21	i	0.56
COc1ccc(NS(=O)(=O)c2ccc3c(c2)CCC(=O)N3)c(OC)c1	i	1.3
C/C=C/C(=O)N1c2ccccc2C(C)=CC1(C)C	i	-0.07
CCOc1ccccc1OCCCOc1ccc(C)cc1Cl	i	-0.57
COc1ccc(-c2noc(C3CCCN(C(=O)CCc4ccccc4)C3)n2)cc1 (stereo unspecified)	i	0.15
CCC1=NN(C(=O)C(=O)NCCc2ccccc2)C(O)(C(F)(F)F)C1 (stereo unspecified)	i	-0.01
C=CCN1C2CCCC1CC(NC(=O)Nc1cc(C)cc(C)c1)C2 (stereo unspecified)	i	-1.6
CS(=O)(=O)Oc1ccc2c(c1)O/C(=C\C=C\c1ccccc1)C2=O	i	-0.09

High-throughput results: PubChem, Johns Hopkins Ion Channel Center
